PABP FP inh: PABP-poly(A) binding inhibition | P11940 | inhibition, % at 35 µM | 290,000 compounds, 1% hits | PABP-poly(A) RNA binding, fluorescence polarization;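 active = 50% or more with normal probe brightness, or confirmed in later tests; inconclusive = above 50% with abnormal brightness, or retests that disagree; inactive = below 50% or failed in later tests; about a fifth of its hits are not listed in these tables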;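 note: calls also rest on retests at 20 µM and on dose response follow-up; controls were probe without protein and protein plus probe with vehicle; some compounds called inactive have numbers as strong as hits; many hits fall short of the cut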
UUG fidelity: alters start codon recognition fidelity in yeast | S. cerevisiae UUG-firefly luciferase reporter, luminescence/redox ratio | activity score, % at 18.7 µM | 350,000 compounds, 0.13% hits | AID 602363;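 active = replicate mean at a twofold rise or more, about +100% in these data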;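 note: firefly luciferase made from a UUG start codon reports start codon fidelity; reporter light over untreated wells divided by growth signal over untreated wells; some hits fall short of that in this replicate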
CSC inhib: blocks cancer stem cells; cancer stem cell-like cells viability, luminescence; inhibition, % at 7.5 µM; AID 2717; 300,000 compounds, 1.1% hits;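 active = mean at 75% or more and at least half the replicates too; inconclusive = mean and replicates disagree; tested in HMLE shEcad cells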;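 note: 0% = median of negative and 100% = median of positive control wells; the first replicate is given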
eIF4H inh: inhibitors of RNA binding by human eIF4H; eIF4H fluorescence polarization binding assay; inhibition, % at 35 µM; 290,000 compounds, 0.94% hits; AID 2012;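 active = 50% or more with normal probe brightness, or confirmed in later tests; inconclusive = above 50% with abnormal brightness, or retests that disagree; inactive = below 50% or failed in later tests; about a fifth of its hits are not listed in these tables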;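 note: calls also rest on retests at 20 µM and on dose response follow-up; 0% = protein and probe with vehicle and 100% = probe without protein; strong numbers were not always called active; many hits fall short of the cut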
Env fusion inh: blocks HIV Env-driven cell-cell fusion; HeLa-JRFL Env/CEM21 cell fusion, luciferase; inhibition, % at 12.3 µM; 360,000 compounds, 1.1% hits; AID 651610;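 active = mean replicate inhibition score of at least 50 and every replicate individually at or above 50; inconclusive = only one of the two criteria met; inactive = mean below 50 and not all replicates reaching 50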;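 note: 0% = plate neutral controls and 100% = maraviroc near 300 nM; one replicate is shown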
Rce1 inh: inhibitors of yeast Ras-converting enzyme | calls only | Q03530 | yeast membranes, quenched prenylated peptide cleavage fluorescence | AID 2563 | 290,000 compounds, 0.27% hits;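 active = fall in fluorescence gain of 50% or more versus controls, with final raw signal at or below 3038400; inconclusive = same 50% fall but final raw signal above 3038400; inactive = fall in fluorescence gain under 50%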;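 note: plate controls were neutral control wells for no effect and wells lacking membranes for full effect; tested at 10 µM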
Target sequence (Q03530 whole entry, looked up): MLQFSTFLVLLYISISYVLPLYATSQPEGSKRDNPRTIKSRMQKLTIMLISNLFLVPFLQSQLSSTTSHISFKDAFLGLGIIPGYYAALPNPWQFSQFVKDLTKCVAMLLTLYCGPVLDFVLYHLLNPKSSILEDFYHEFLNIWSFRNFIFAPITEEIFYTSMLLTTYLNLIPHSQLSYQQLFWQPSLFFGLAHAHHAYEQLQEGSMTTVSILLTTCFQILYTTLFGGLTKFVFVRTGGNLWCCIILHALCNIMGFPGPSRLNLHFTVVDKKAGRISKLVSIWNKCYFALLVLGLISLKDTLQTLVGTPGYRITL
MT1-MMP act inh: blocks activation of human MT1-MMP | AID 651647 | GFP/RFP ratio change, % at 20 µM | HT1080 RFP-PRO-GFP cells, GFP/RFP ratio fluorescence, overnight; percent of plate control window, DMSO zero | 360,000 compounds, 0.061% hits;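 active = GFP/RFP ratio change of at least 30% with cell ATP level not reduced by more than half and red fluorescence within 50% of control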; note: strong numbers were not always called active
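Test system: HT1080 RFP-PRO-GFP cells; Benchmarks: DMSO and RFP-L50D-GFP cell wells; Timing: cells overnight before dosing, compound overnight, 37 °C, 5% CO2; Compound: one 20 µM compound dose with 1% DMSO; Read-out: GFP/RFP fluorescence ratio.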
eIF4H inh retest: recorded beside eIF4H inh, whose call it bears; inhibition, %; compound at 20 µM; confirmation average;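 mean of two retest wells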
PABP FP inh retest: second read-out of PABP FP inh, no call of its own (marks repeat the call); inhibition, %; compound at 20 µM; confirmation repeats;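 mean of two retest wells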
MT1-MMP act inh RFP: further read-out of MT1-MMP act inh, marked with its call; RFP signal change, %; measured here: RFP expression control read;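 0 = vehicle wells; hits needed this value within 50% of zero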
Numbers without * were called inactive; i = inactive; ? = inconclusive; . = not tested or not shown; & = joins results of further samples; [ ] = another dose, or the depositor's remark.

The opening five records as a preview:
SMILES	PABP FP inh	UUG fidelity	CSC inhib	eIF4H inh	Env fusion inh	Rce1 inh	MT1-MMP act inh	MT1-MMP act inh RFP	others
C=CCN1CC(c2nc3ccccc3n2Cc2ccccc2)CC1=O (stereo not given)	-3	0	3	-4	-14	.	2	5
CCOC(=O)C1(CC)NC(c2ccco2)C2C(=O)N(CC)C(=O)C21 (stereo not given)	14	-1	16	-3	-1	i	1	0
CCc1ccccc1NC(=O)c1ccc2nc(N3CCOCC3)sc2c1	-6	-9	2	0	1	i	4	1
COc1ccc(CC(=O)OCC(=O)Nc2ccc3[nH]c(=O)[nH]c3c2)cc1	.	-5	-7	.	-17	i	3	0
CN(C)CCCN1C(=O)C(=O)/C(=C(/O)c2ccncc2)C1c1cccc(Br)c1 (stereo not given)	-7	-39	3	-10	.	i	3	-3

Results (from the top)
SMILES	PABP FP inh	UUG fidelity	CSC inhib	eIF4H inh	Env fusion inh	Rce1 inh	MT1-MMP act inh	MT1-MMP act inh RFP	others
C=CCN1CC(c2nc3ccccc3n2Cc2ccccc2)CC1=O (stereo not given)	-3	0	3	-4	-14	.	2	5
CCOC(=O)C1(CC)NC(c2ccco2)C2C(=O)N(CC)C(=O)C21 (stereo not given)	14	-1	16	-3	-1	i	1	0
CCc1ccccc1NC(=O)c1ccc2nc(N3CCOCC3)sc2c1	-6	-9	2	0	1	i	4	1
COc1ccc(CC(=O)OCC(=O)Nc2ccc3[nH]c(=O)[nH]c3c2)cc1	.	-5	-7	.	-17	i	3	0
CN(C)CCCN1C(=O)C(=O)/C(=C(/O)c2ccncc2)C1c1cccc(Br)c1 (stereo not given)	-7	-39	3	-10	.	i	3	-3
O=C(Cn1cccc1C(=O)c1ccccc1)NCc1cccs1	-6	-3	-17	-11	.	i	1	4
CC1CN(S(=O)(=O)c2cccc(C(=O)NCc3ccccn3)c2)CC(C)O1 (stereo not given)	.	.	5	.	0	.	0	-3
S=C(NCc1cccnc1)c1ccccc1	-5	-27	1	-9	-7	i	1	1
CCOC(=O)c1nnn(-c2nonc2N)c1CN(CC)c1ccccc1	1	.	-15	3	.	i	-4	-6
OCC(Cc1ccc2c(c1)OCO2)C(CO)Cc1ccc2c(c1)OCO2 (stereo not given)	-5	-14	-5	-6	.	i	-1	-8
COc1ccc(NC(=O)c2oc3ccccc3c2C)c(OC)c1	9	-18	-7	-2	22	i	-2	0
c1ccc2nc3c(ccc4ccccc43)cc2c1	.	-11	.	.	-265	.	-2	3
C/C(=N\NC(=O)Cc1c(Cl)cccc1Cl)c1cccnc1	-3	-4	-12	-2	-8	i	-1	2
CCOc1ccccc1NC(=O)CSc1nnc(Cc2cccn2C)n1-c1ccc(F)cc1	5	-8	-8	0	-4	i	-1	-1
CCc1cc(C(=O)O)c(NC(=O)/C=C/c2ccc(OC)c(OC)c2)s1	3	.	-8	5	4	i	4	2
CCOc1ccc(CCNC(=O)C2CC(=O)N(CCc3ccc(OC)c(OC)c3)C2)cc1OCC (stereo not given)	.	-3	-14	.	-78	i	1	2
COc1ccc(N2CCOCC2)c(NC(=O)c2ccc(Br)o2)c1	10	-3	-15	-9	19	i	-6	-9
CC1C(=O)N(Cc2cn(CCC3OCCO3)nn2)CCS(=O)(=O)N1Cc1ccc(-c2ccc(Cl)c(Cl)c2)cc1 (stereo not given)	.	2	.	.	0	.	-2	-14
Cc1nc2ccc(S(=O)(=O)N(C)CC(=O)Nc3ccccc3F)cc2s1	?	-1	-4	-6	7	i	-2	3
O=S(=O)(NCc1ccc(F)cc1)c1ccc(Br)cc1Br	.	-10	3	.	-11	.	2	-2
Cc1ccc(S(=O)(=O)NCC(=O)NNC(=O)c2ccc(Br)cc2)cc1C	.	-28	2	.	.	.	-3	0
N#Cc1cnc(Oc2ccc(Cl)cc2)nc1N	6	2	7	-8	-12	i	0	0
COC(=O)C(C)Sc1ncnc2c1nnn2-c1ccc(F)cc1 (stereo not given)	1	6	-7	-2	.	i	0	-4
CC(=O)Nc1cccc(-c2cnc(NC(C)=O)cn2)c1	.	-25	.	.	-28	.	-3	1
O=C(NC1CCCC1)c1ccc(CS(=O)(=O)c2cccc(C(F)(F)F)c2)o1	-5	14	5	-5	-19	i	7	2
CCN(C(=O)c1ccc(S(=O)(=O)N2CCC(C)CC2)cc1)C1CCS(=O)(=O)C1 (stereo not given)	.	.	-11	.	.	i	-8	-5
CCn1c(=O)cc(SCC(=O)Nc2cccc(C)n2)c2ccccc21	-7	-15	-10	1	9	i	2	4
COc1cccc(Cn2cnc3c(N)c(C)c(C)cc32)c1	19	.	-14	-6	18	i	1	-4
CCCCOCCCNC(=S)Nc1ccc(S(=O)(=O)N2CCOCC2)cc1	19	-24	4	-13	-14	i	2	-12
Cc1ccc(C(=O)NC(C)(COc2nonc2C)COc2nonc2C)cc1	0	4	-4	5	.	i	0	-1
Cc1cccc(N2CCN(C(=O)c3ccccc3NC(=O)C3CC=CCC3C(=O)O)CC2)c1 (stereo not given)	2	0	2	-2	.	i	-2	-1
CCOc1ccc(NC(c2ccccn2)c2oc(CO)cc(=O)c2O)cc1 (stereo not given)	6	-18	15	123	-43	i	2	7	eIF4H inh retest=-5;PABP FP inh retest=3
O=C(CNS(=O)(=O)c1ccc2ccccc2c1)OCC(=O)c1ccc(Br)s1	-11	-10	-5	0	-112	i	6	5
O=C(CCC(=O)N1CCOc2ccc(Cl)cc21)NCCCN1CCN(Cc2ccccc2)CC1	-8	0	-5	-7	8	i	0	0
Cc1nn2c(CN(C(=O)CN3CCOCC3)c3ccccc3)nnc2c2ccccc12	4	.	-1	-9	4	i	-3	-1
CC1CN(C(=O)COC(=O)Cc2ccc(Cl)cc2)CC(C)O1 (stereo not given)	.	-12	-3	.	0	.	0	4
CSc1nc(-c2ccccc2)c(C#N)c(=O)[nH]1	-6	-17	1	-5	-1	i	2	5
Cc1ccc(S(=O)(=O)c2c(C)cc(C)nc2N2CCCCC2)cc1	-10	.	.	-9	22	i	-3	-2
COc1ccc(NC(=O)C2CC(c3ccccc3O)=NO2)cc1OC (stereo not given)	0	-12	6	-7	4	i	2	-5
Cc1ccc(N2C(=O)CC(Nc3ccccc3)C2=O)cc1 (stereo not given)	-10	-23	-4	3	.	i	1	1
Cc1ccc(/C=N/N2CCOCC2)s1	5	.	12	-6	-7	i	4	0
CC1Cc2nc(SCC(=O)NC3CCCCC3)n(C)c(=O)c2S1 (stereo not given)	-6	1	-5	-1	.	i	2	-1
COc1cccc2cc(C(=O)NCCC3=CCCCC3)c(=O)oc12	-5	-25	1	-3	-1	i	5	3
CCCCNC(=O)c1onc(CSc2ccccc2)c1C(=O)O	2	2	-5	-3	-10	i	3	2
CCOc1cc(C(=O)OCC(=O)Nc2ncc(Cl)c(C)c2Cl)ccc1OCC(=O)N1CCOCC1	-8	-8	15	2	-1	i	-13	-3
COc1cc(NC(=O)c2ccccc2Cl)ccc1NC(=O)c1ccco1	-2	6	-10	-9	-216	i	2	4
COc1ccc(/C=C/C(=O)NCCCn2ccnc2)cc1	-6	.	-5	-6	4	i	3	4
COc1ccc(NC(=O)CN(C)C(C)C(=O)N2CCCCC2)cc1 (stereo not given)	20	-12	6	16	-9	i	3	5
CCn1c(SCC(=O)NCc2ccco2)nnc1C(C)C	7	-9	2	-2	-28	i	-9	-4
CN1C(=O)OC(C)(CCc2ccccc2)C1(C)O (stereo not given)	20	-16	0	5	-7	i	4	2
CC1Cc2nc(SCC(=O)NCc3ccccc3)n(Cc3ccccc3)c(=O)c2S1 (stereo not given)	-9	-22	5	-3	72*	i	-3	-3
CCS(=O)(=O)c1ccc(O)c(NC(=O)COc2ccc(Cl)cc2)c1	4	-3	-10	-1	-5	i	7	4
CCn1c(SCC(=O)NCc2ccco2)nc2ccccc2c1=O	4	.	6	-3	-1	i	1	0
CC(=O)Nc1ccc(C(=O)N2CCCC(c3cc(C(=O)Nc4ccccc4Cl)no3)C2)cc1 (stereo not given)	.	17	.	.	-93	.	-1	0
COc1ccc(NC(=O)c2cc(C)on2)cc1OC	-4	0	-2	0	-26	i	-1	0
COC(=O)c1ccc(NC(=O)Cc2ccc(C)cc2)cc1	2	-15	0	12	-77	i	5	11
Cc1ccccc1NC(=O)COC(=O)C1C2CC3OC(=O)C1C3C2 (stereo not given)	-5	-16	.	-10	-13	i	-1	1
O=C(CC1SC(=O)NC1=O)Oc1ccc(/C=N/NC(=O)c2ccccc2O)cc1 (stereo not given)	24	.	-8	-1	-5	i	0	6
Cc1cc(C(=O)COC(=O)c2ccc(F)cc2)c(C)n1C	.	-4	-14	.	.	.	1	5
CC1(C(=O)NS(=O)(=O)Cc2ccccc2C(F)(F)F)CCN1C(=O)c1ccccc1 (stereo not given)	.	-3	.	.	-22	.	4	4
(next part)
SMILES	PABP FP inh	UUG fidelity	CSC inhib	eIF4H inh	Env fusion inh	Rce1 inh	MT1-MMP act inh	MT1-MMP act inh RFP	others
CC(C)(C)[C@H]1C=C(C(=O)N2CCOCC2)O[C@@H](OCCCCO)C1	15	-9&-16	-5	-2	-9[16.7 µM]	i	-2	1
O=C(Nc1ccccc1C(=O)N1CCN(c2cccc(Cl)c2)CC1)C1=CSCCO1	16	12	11	12	7	i	-1	0
O=C(Nc1ccccc1)c1ccc2nsnc2c1	-2	2	1	1	-71	i	1	-3
COC(=O)CCC(=O)Nc1ccc(Br)cc1	8	.	-6	15	.	i	9	2
CCc1noc(C)c1C(=O)NNC(=O)c1ccccc1	.	-18	.	.	-12	.	-1	6
CCOc1ccc(S(=O)(=O)Nc2nc3ccccc3nc2Cl)cc1	9	-13	-3	-6	7	i	7	-3
CCCCC(CC)COC(=O)c1ccc(N(C)C)cc1 (stereo not given)	.	-2	0	.	.	.	-3	-1
Cc1cc(C)n(-c2ccc(S(=O)(=O)N3CCOCC3)cc2[N+](=O)[O-])n1	-10	.	-15	8	-15	i	2	-3
O=C(NC(=S)NC1CCN(Cc2ccccc2)CC1)c1ccc(F)cc1	-5	-5	4	16	26	i	5	3
Cc1ccc(NC(=O)c2nc[nH]c2C(=O)Nc2ccc(C)cc2)cc1	-2	-11	-10	-8	.	i	6	6
CCCOc1ccc(C(=O)c2ccccc2C(=O)O)cc1OCCC	-4	-16	-1	-9	3	i	11	10
COc1nccnc1NS(=O)(=O)c1ccc(NCc2cc(Br)ccc2O)cc1	14	-7	19	-5	-39	i	-2	0
O=S(=O)(Nc1ccc2ccccc2c1)N1CCCCC1	.	-10	.	.	0	.	3	-6
C=CCOc1ccc(C=CC(=O)c2c(O)c(OC)c(OC)c(OC)c2OC)cc1	.	-7	.	.	-6	.	1	-7
COCCCNC(NC(=O)c1ccc(OC)cc1)C(Cl)(Cl)Cl (stereo not given)	-4	-9	-8	0	15	i	-2	-7
Cc1ccc(-c2nc(NCC3CCCO3)sc2C)cc1 (stereo not given)	-7	.	.	-3	1	i	-7	-7
COCCNc1nnc(SCC(=O)Nc2nnc(-c3ccccc3)o2)s1	.	.	-13	.	-26	i	3	3
COc1ccc(NC(=O)CCNC(=O)c2ccc([N+](=O)[O-])cc2)cc1S(=O)(=O)N1CCCCC1	.	5	.	.	17	.	15	3
CCOc1ccc(NC(=O)c2ccco2)c([N+](=O)[O-])c1	1	.	4	16	-165	i	5	6
O=C(NCc1ccccc1)c1cc(=O)[nH]c2ccccc12	-3	-11	-9	3	-30	i	2	-3

Source: PubChem BioAssay (several laboratories)
